Cruzain inh Det = cruzain (T. cruzi) inhibition with detergent | P25779 | purified cruzain, Z-FR-AMC fluorescence, 0.01% Triton | Potency, µM, without a hit: max response, negative = inhibition, hits mostly inhibitors | hit rate 0.43% among 200,000 | AID 1478;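 further: plate controls were neutral wells for no effect and buffer without enzyme for full effect; nearly all actives have a fitted effect of over 40% in size; top concentration of the series not given in the record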
Target sequence (P25779 123-467 limits assumed): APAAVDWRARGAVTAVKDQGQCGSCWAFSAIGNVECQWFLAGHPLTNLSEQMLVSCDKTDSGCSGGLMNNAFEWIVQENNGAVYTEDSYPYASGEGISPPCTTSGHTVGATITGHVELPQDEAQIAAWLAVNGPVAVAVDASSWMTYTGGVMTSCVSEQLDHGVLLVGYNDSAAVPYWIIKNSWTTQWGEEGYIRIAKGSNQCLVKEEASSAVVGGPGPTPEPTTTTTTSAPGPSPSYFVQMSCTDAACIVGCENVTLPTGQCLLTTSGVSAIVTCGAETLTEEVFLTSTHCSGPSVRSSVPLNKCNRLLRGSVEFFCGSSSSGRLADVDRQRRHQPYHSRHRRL
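Steps: dispense cruzain (1.5 nM final) in acetate buffer pH 5.5 with DTT and 0.01% Triton X-100; pin-transfer compounds; incubate 15 min RT; add Z-FR-AMC (2 uM final); read fluorescence every 30 s, using the 60 s intensity change.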
SARS PLP yeast = inhibitors of SARS-CoV papain-like protease in yeast; hit rate 0.19% among 330,000; S. cerevisiae expressing SARS-CoV PLpro, growth rescue; control for the full effect not named in the record; Potency, µM (series often up to 32.9 µM), for the others: top-dose activity, positive = growth rescue; active means well fitted rising curve with a large enough effect; inconclusive means small, poorly fitted or top-dose-only effect; inactive means no such curve, though single readings can be large or run the other way; further: 0% is about no effect; nearly all actives have a fitted effect of over 55% in size; growth read by luminescence after 48 h
StopGo reporter = FMDV 2A StopGo reporter, luciferase signal. human cells with a luciferase reporter of 2A StopGo recoding; control for the full effect not named in the record. Potency, µM (titrated, usually from 57.9 µM), without a hit: at the highest dose signal change, negative = less light. hit rate 1.2% among 410,000; active = well fitted falling curve with a large enough effect; inconclusive = small, poorly fitted or top-dose-only effect; inactive = no such curve, though single readings can be large or run the other way; tested in HEK293T cells; further: on the % scale 0 is the no-effect control and ±100 the full control effect; nearly all actives have a fitted effect of over 45% in size; luciferase light after 4 h
Cruzain inh noDet = blocks cruzain activity in detergent-free assay; Potency, µM, for inactives: max response, negative = inhibition, actives largely listed as inhibitors; P25779; hit rate 2.3% among 200,000; purified cruzain, Z-FR-AMC fluorescence, no detergent;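 further: plate controls were enzyme without inhibitor for no effect and buffer without enzyme for full effect; nearly all actives have a fitted effect of over 40% in size; top concentration of the series not given in the record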
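Purified cruzain at 1.5 nM, pre-incubated 15 min with compound at room temperature in 100 mM sodium acetate pH 5.5, 5 mM DTT, 0.00005% Triton X-100. Reaction started with 2 uM Z-FR-AMC; AMC fluorescence increase over 60 s gives rate.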
RE007 growth inh = less growth of the S. pombe RE007 Vpr strain; S. pombe RE007 Vpr strain, BacTiter-Glo ATP luminescence, 24 h; control for the full effect not named in the record; Potency, µM (doses to about 92.2 µM), for inactives: at the highest dose activity change, negative = less growth; hit rate 0.21% among 360,000; AID 651644; active = well fitted falling curve with a large enough effect; inconclusive = small, poorly fitted or top-dose-only effect; inactive = no such curve, though single readings can be large or run the other way;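 further: on the % scale 0 is the no-effect control and ±100 the full control effect; nearly all actives have a fitted effect of over 50% in size; the assay follows cell death caused by Vpr and the record does not say whether a fall means rescue or toxicity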
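Fission yeast strain RE007, carrying one chromosomally integrated HIV-1 vpr copy, was seeded at OD 0.01 in PMG+AL medium with 23 nL pinned compound. After 24 h at 30 °C and 99% humidity, viability was read by BacTiter-Glo luminescence.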
NS1 inh = influenza NS1 inhibition. S. cerevisiae slowed by influenza A NS1, growth recovery by OD600. Potency, µM (series often up to 46.1 µM), for inactives: at the top dose activity, positive = more growth. hit rate 0.4% among 270,000; active means well fitted rising curve with a large enough effect; inconclusive means small, poorly fitted or top-dose-only effect; inactive means no such curve, though single readings can be large or run the other way; further: nearly all actives have a fitted effect of over 50% in size
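S. cerevisiae expressing influenza A NS1, grown in glucose, washed, then diluted 1:100 into pH 6.0 -URA galactose medium with 23 nl compound. Growth recovery read as OD600; NS1-free strain serves as control.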
MARV entry inh = blocks Marburg virus binding to or entry into cells. AID 540276. hit rate 1.8% among 300,000. Potency, µM (series often up to 37.8 µM), without a hit: top-dose activity change, negative = inhibition, actives largely listed as inhibitors. Marburg virus pseudotyped entry inhibition, cell reporter; control for the full effect not named in the record; about a third of the inactives were read at about 46 µM; active = well fitted inhibition curve with a large enough effect; inconclusive = small, poorly fitted or top-dose-only effect, or effect the other way; inactive = flat fitted curve, though single readings scatter; tested in HEK293 cells; about a fifth of its hits are not listed in these tables; further: on the % scale 0 is the no-effect control and ±100 the full control effect; luciferase read-out
LASV entry inh = Lassa virus entry inhibition | Lassa virus pseudotype entry inhibition, cell reporter; control for the full effect not named in the record | AID 540256 | hit rate 1.2% among 300,000 | Potency, µM (highest dose often 37.9 µM), inactives show top-dose activity change, negative = inhibition, most hits filed as inhibitors; active means well fitted inhibition curve with a large enough effect; inconclusive means small, poorly fitted or top-dose-only effect, or effect the other way; inactive means flat fitted curve, though single readings scatter; tested in HEK293 cells; further: on the % scale 0 is the no-effect control and ±100 the full control effect; nearly all actives have a fitted effect of over 50% in size; luciferase read-out
Active calls of the source: *; ? = inconclusive; . = not tested or not shown; & = joins results of further samples; [ ] = dose if it differs, or a comment. Unless noted, the call rests on the fitted dose curve; in most records, active means well fitted curve in the direction sought with a large enough effect; inconclusive means small, poorly fitted or top-dose-only effect, or another doubt; inactive means no such curve, though single readings can be large; an effect the other way counts as inactive or inconclusive. Potency means the concentration at half of the fitted maximal effect.

SMILES | Cruzain inh Det | SARS PLP yeast | StopGo reporter | Cruzain inh noDet | RE007 growth inh | NS1 inh | MARV entry inh | LASV entry inh
O=C(CSc1nc2ccccc2o1)Nc1ccccc1 | -1.4% | -5% | 42%[activator] | -5% | 5% | -56% | 18% | 7%
O=C(CCN1C(=O)S/C(=C/c2ccccc2)C1=O)Nc1ccc(C(=O)O)c(O)c1 | . | 6% | 24% | . | 5% | 9% | . | .
CC1C(=O)O[C@@H]2C[C@@H](C)[C@@H]3CCC(=O)[C@@]3(C)[C@@H](O)[C@H]12 (stereo not given in full) | . | 3% | -23% | . | -6% | -6% | . | .
CC1CCN(S(=O)(=O)c2cccc(C(=O)Nc3ccccn3)c2)CC1 | -4.8% | -8% | 9% | -5% | -4% | -31% | 21% | 7%
CC1(C)CC(=O)C=C(NCc2ccccc2)C1 | 2.2% | 3% | . | 7% | 0% | ? | 18% | 1%
COC(=O)NC(NC(=S)Nc1ccccc1OC)C(Cl)(Cl)Cl (stereo not given) | -6.9% | -12% | -1% | 2% | 20% | 19% | 8% | -4%
CC(c1ccccc1)C1C(C#N)=C(N)SC(N)=C1C#N (stereo not given) | 0.1% | -5% | ? | -3% | 6% | -5% | 18% | 1%
CN(Cc1ccccc1)c1ccc(-c2nc(-c3ccccc3)no2)cc1[N+](=O)[O-] | -4.3% | . | 0% | -1% | . | . | 5%[46.1 µM] | -11%[46.1 µM]
O=C(CN1CCCCCCC1)NC(=O)NC1CCCCC1 | . | -2% | 40%[activator] | . | -7% | -4% | 2%[46.1 µM] | -15%
Cc1cccc(N2CC(C(=O)O)CC2=O)c1 (stereo not given) | 9.3% | 2% | 17% | -4% | 9% | 0% | 10%[46.1 µM] | -3%
Cc1ccc2nc(-c3ccc(NC(=O)CSCC(=O)O)cc3)sc2c1 | . | 0% | 50%[activator] | . | 3% | 4% | . | .
COc1cc(/C=N/NC(=O)c2cc(-c3cccs3)nc3ccccc23)ccc1O | . | 0% | -21% | . | -7% | 3% | . | .
COc1ccc(S(=O)(=O)N2CCC(O)(c3ccc(Cl)cc3)CC2)cc1OC | . | -1% | ? | . | 2% | -9% | ? | ?
CCOc1ccccc1NC(=O)NCc1ccccn1 | . | 8% | -4% | . | -1% | -4% | 1%[46.1 µM] | -1%[46.1 µM]
CC(C)(C)Nc1cccccc1=O | 4.2% | 5% | -8% | 1% | -5% | -4% | 1% | -1%
CN(C)S(=O)(=O)c1cccc(-c2nnc(SCCNCCO)n2-c2ccc(F)cc2)c1 | . | -2% | 19% | . | 6% | 16% | . | .
O=C(c1ccc(COc2ccccc2Br)o1)N1N=C(C(F)F)CC1(O)C(F)F (stereo not given) | -6.9% | 3% | -24% | -4% | . | 7% | 7.1µM* | -7%
CCN(C#N)c1nc(NC(C)C)nc(NC(C)C)n1 | 0.1% | 2% | 2% | 7% | -14% | -5% | -1% | 13%
COc1ccccc1N1CCN(CCC(=O)Nc2ccc3c(c2)OCO3)CC1 | 7.3% | 3% | ? | 1% | ? | -4% | -5% | 4%
Cc1ccnc(NC(=O)c2cccc(OC(F)F)c2)n1 | . | -2% | 35%[activator] | . | -4% | 8% | ? | 5%[46.1 µM]
CCN(CC)C(=O)c1cc2cc([N+](=O)[O-])ccc2s1 | 2.0% | 10% | 0% | 6% | -9% | -12% | -6% | 0%
Cn1c(SCc2ccccc2)nnc1-c1cccs1 | 0.4% | 0% | 55%[activator] | -1% | 24% | -38% | -3% | 3%
O=C(CCN1C(=O)S/C(=C\c2ccccc2)C1=O)NC1CCS(=O)(=O)C1 (stereo not given) | . | ? | 8% | . | -8% | -3% | . | .
CN1CCOCCOCCOCCN(C)C1=S | . | -1% | 10% | . | -9% | 3% | 1%[46.1 µM] | .
Cc1cc(C)cc(C(=O)N2CCC(CCC(=O)NC3CC3)CC2)c1 | . | -2% | -13% | . | 16% | 5% | ? | 5%

3 compounds from above, ordered by count of non-hydrogen atoms, high to low.
SMILES | Cruzain inh Det | SARS PLP yeast | StopGo reporter | Cruzain inh noDet | RE007 growth inh | NS1 inh | MARV entry inh | LASV entry inh
CN(Cc1ccccc1)c1ccc(-c2nc(-c3ccccc3)no2)cc1[N+](=O)[O-] | -4.3% | . | 0% | -1% | . | . | 5%[46.1 µM] | -11%[46.1 µM]
Cn1c(SCc2ccccc2)nnc1-c1cccs1 | 0.4% | 0% | 55%[activator] | -1% | 24% | -38% | -3% | 3%
CC1(C)CC(=O)C=C(NCc2ccccc2)C1 | 2.2% | 3% | . | 7% | 0% | ? | 18% | 1%

In the list so far, these contain an aryl methoxy group.
SMILES | Cruzain inh Det | SARS PLP yeast | StopGo reporter | Cruzain inh noDet | RE007 growth inh | NS1 inh | MARV entry inh | LASV entry inh
COC(=O)NC(NC(=S)Nc1ccccc1OC)C(Cl)(Cl)Cl (stereo not given) | -6.9% | -12% | -1% | 2% | 20% | 19% | 8% | -4%
COc1cc(/C=N/NC(=O)c2cc(-c3cccs3)nc3ccccc23)ccc1O | . | 0% | -21% | . | -7% | 3% | . | .
COc1ccc(S(=O)(=O)N2CCC(O)(c3ccc(Cl)cc3)CC2)cc1OC | . | -1% | ? | . | 2% | -9% | ? | ?
COc1ccccc1N1CCN(CCC(=O)Nc2ccc3c(c2)OCO3)CC1 | 7.3% | 3% | ? | 1% | ? | -4% | -5% | 4%

(cont.)
SMILES | Cruzain inh Det | SARS PLP yeast | StopGo reporter | Cruzain inh noDet | RE007 growth inh | NS1 inh | MARV entry inh | LASV entry inh
O=C(NC1CCCCC1)C(c1cccs1)N(CCCN1CCOCC1)C(=O)c1ccc(-c2ccccc2)[nH]1 (stereo not given) | . | 0% | -14% | . | -5% | -3% | ? | -18%
COc1ccc(CCN=C(C)C2=C(O)C(c3ccccc3)OC2=O)cc1OC (stereo not given) | . | -1% | ? | . | 1% | -3% | -30%[46.1 µM] | -14%
CCOC1(OCC)N=C(N)C2(C#N)C(c3cccc(C)c3)C12C#N (stereo not given) | 1.5% | 4% | -30% | 2% | 1% | -15% | 7% | 4%
CCCCN(C(=O)CSc1nc(CCC)cc(=O)[nH]1)c1c(N)n(Cc2ccccc2)c(=O)[nH]c1=O | . | 1% | -6% | . | 3% | . | ? | -1%[46.1 µM]
Cc1ccc(Cn2c(SCC(=O)N3CC(=O)Nc4ccccc43)nc3ccccc3c2=O)cc1 | -5.6% | 13% | -18% | ? | -2% | 13µM* | ? | ?
CCOc1cccc(CNCCCSc2ncccn2)c1 | . | -2% | -17% | . | 2% | 6% | . | .
CSc1ccc(C2C(C#N)=C(N)Oc3cc4c(cc32)OCO4)cc1 (stereo not given) | -8.1% | . | ? | 6% | 1% | 0% | ? | -20%
CC1CN(c2ccc(NC(=S)Nc3ccc(N4CC(C)OC(C)C4)cc3)cc2)CC(C)O1 (stereo not given) | . | -1% | -3% | . | -8% | 0% | . | .
COc1cccc(NC(=O)C(OC(=O)c2ccccc2NS(=O)(=O)c2cccs2)c2ccccc2)c1 (stereo not given) | -2.4% | ? | 6% | ? | -11% | 11% | ? | -4%
Nc1ccc2nc3c(=O)[nH]c(=S)[nH]c3nc2c1 | . | 2% | 35%[activator] | . | -17% | 5% | . | .
Cc1ccc(-n2nnc3ccccc3c2=O)cc1C | -0.4% | -10% | 17% | -15% | ? | -15% | 8% | -19%
COC(=O)c1ccc(NC(=O)CN(c2ccc(C)cc2)S(=O)(=O)c2c(C)nn(C)c2C)cc1 | -7.0% | -1% | . | ? | -9% | 1% | -15% | -20%
Cc1ccccc1C(=O)NNC(=O)CCC(=O)Nc1cccc(Cl)c1C | 1.8% | -2% | 22% | 12% | -2% | 4% | ? | 2%
O=C(CN1C(=O)/C(=C\C=C\c2ccccc2)SC1=S)Nc1ccc(F)cc1 | -6.9% | 19% | 1% | 6.3µM* | 24% | 18µM* | -1% | ?
O=C(Nc1ccccc1)Nc1ccccn1 | 0.2% | -11%&0% | 63%[activator] | -7% | -3% | -3%&-7% | -2%&-2% | 3%
CCOc1ccc(-c2nc3cc(NC(=O)COc4cccc(C)c4)ccc3o2)cc1 | 1.1% | . | 14% | -5% | . | . | . | ?
COc1ccc(CNC(=O)COC(=O)CC(NC(N)=O)c2ccc(Cl)cc2)cc1OC (stereo not given) | . | -15% | -18% | . | 35% | . | ? | 4%
CN(C)c1ccc(-c2noc(C3CCN(C(=O)Nc4ccc(Cl)cc4)CC3)n2)cc1 | . | 0% | ? | . | 9% | -2% | -1%[46.1 µM] | -16%[46.1 µM]
Cc1cc(C)cc(C(=O)NC(CC(N)=O)c2ccc(NC3CCCC3)c([N+](=O)[O-])c2)c1 (stereo not given) | . | 1% | -21% | . | -6% | 6% | . | .
COCCN(C(=O)CNC(=O)c1cccs1)C(C(=O)NC(C)(C)C)c1ccccc1 (stereo not given) | . | 1% | -4% | . | -3% | -1% | ? | -19%
COc1ccc2cc(S(=O)(=O)n3cnc(C)c3)ccc2c1 | . | 1% | -18% | . | 4% | 6% | -19%[46.1 µM] | 14%[46.1 µM]
O=C(/C=C/c1ccc(Cl)cc1Cl)c1nc2ccccc2[nH]1 | 3.6% | 1% | -9% | 7.9µM* | 7.9µM* | -20% | -38% | -18%
CC(C)c1ccc(/C=C/C(=O)NCCCc2ccccc2)cc1 | -5.3% | -52% | -9% | 0% | -4% | -36% | 5% | 9%
CCOc1ccc(N(CC(=O)NC2CC2)S(=O)(=O)c2ccc(C)cc2)cc1 | . | 3% | -1% | . | -5% | 0% | 6%[46.1 µM] | -17%
Cc1ccc(S(=O)(=O)N2CCCOC2CNC(=O)C(=O)NCCc2c[nH]c3ccccc23)cc1 (stereo not given) | -5.5% | -5% | 0% | ? | 2% | ? | ? | ?
CCN(C(=O)CSc1nnc(-c2cc(OC)c(OC)c(OC)c2)o1)c1ccccc1 | -20% | . | 0% | -2% | . | . | -4%[46.1 µM] | 13%[46.1 µM]
Cc1ccc2c(O)c(C)c(=O)[nH]c2n1 | . | -1% | -5% | . | -7% | 3% | -4%[46.1 µM] | -2%
Cc1cccc(-n2c(CNC(=O)c3ccc(S(=O)(=O)N4CCCCC4)cc3)n[nH]c2=S)c1 | . | -4% | 24% | . | 5% | 10% | 8%[46.1 µM] | -6%

Bioassay records as filed in PubChem BioAssay.
